# Compound activity (PubChem)
# MT1-MMP act inh: blocks activation of human MT1-MMP; AID 651647; HT1080 RFP-PRO-GFP cells, GFP/RFP ratio fluorescence, overnight; percent of plate control window, DMSO zero; GFP/RFP ratio change, % at 20 µM; 360,000 tested, 0.061% active;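 active means GFP/RFP ratio change of at least 30% with cell ATP level not reduced by more than half and red fluorescence within 50% of control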; further: strong numbers were not always called active
#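 Read-out: GFP/RFP fluorescence ratio; Test system: RFP-PRO-GFP reporter HT1080 cells; Compound dosing: single-point 20 µM compound, 1% DMSO; Times: overnight compound exposure at 37 °C.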
# Yeast UUG start: alters start codon recognition fidelity in yeast; S. cerevisiae UUG-firefly luciferase reporter, luminescence/redox ratio; activity score, % at 18.7 µM; 350,000 tested, 0.13% active;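 active means replicate mean at a twofold rise or more, about +100% in these data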;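 further: firefly luciferase made from a UUG start codon reports start codon fidelity; reporter light over untreated wells divided by growth signal over untreated wells; some hits fall short of that in this replicate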
# MT1-MMP act inh RFP: second read-out of MT1-MMP act inh, no call of its own (marks repeat the call); RFP signal change, %; measured here: RFP expression control read;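 0 = vehicle wells; hits needed this value within 50% of zero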
# An asterisk follows results filed as active; & = joins results of further samples. The list is partial (hit frequency here may not be typical).
SMILES,MT1-MMP act inh,MT1-MMP act inh RFP,Yeast UUG start
Cc1ccc(CNc2ncnc3c2cnn3C2CCCCO2)cc1 (stereo not given),-1.0,-0.6,-13.9
O=C(Nc1ccc(Cl)c(S(=O)(=O)N2CCOCC2)c1)c1cc(=O)[nH]c2ccccc12,4.3,3.8,-17.9
COc1cccc(NC(=O)CN(C)C(=O)CC2Sc3ccccc3NC2=O)c1 (stereo not given),-0.6,1.6,-24.9
O=C(COC(=O)c1cccc(O)c1)Nc1ccc(N2CCOCC2)cc1,1.0,-0.1,-11.7
CCN(CC(=O)NCc1cccs1)C(=O)CCCOc1ccccc1,-3.6,-2.3,4.1
O=S(=O)(NCc1nnc2ccccn12)c1ccc(Cl)cc1,0.5,3.3,-8.8
COc1ccc(-c2cc(=O)c3c(OC)c(OC)c(OC)c(OC)c3o2)cc1,-5.1,-6.2,-35.0
Cc1ccc(-n2ccnc2SCC(=O)c2c(N)n(C3CC3)c(=O)[nH]c2=O)cc1C,-6.8,-1.3,-15.1
COc1cc(C(=O)NC2CCN(C)CC2)ccc1Nc1ncc2c(n1)N(C1CCCC1)CCC(=O)N2C(C)C,13.4,4.2,-8.4
CCC1Nc2ncnc(N3CCc4ccccc4C3)c2N(Cc2ccc(Br)cc2)C1=O (stereo not given),-2.8,-7.1,3.2
COc1ccc(C2(C)C(C#N)C(=O)NC(=O)C2C#N)cc1 (stereo not given),1.1,4.7,-22.2
N#Cc1cccc(C(=O)Nc2ccccc2C(=O)NC2CC2)c1,-0.3,-0.1,-15.5
C/C(=N\OCC(=O)OCC(=O)N(C)c1ccccc1)c1ccc2c(c1)OCO2,0.3,3.3,-1.4
COc1ccc(C(=O)NCC(c2ccccc2)c2ccccc2)cc1S(=O)(=O)N1CCOCC1,-4.0,-6.1,-3.0
Cc1cc(NC(=O)CN(C)CC(=O)Nc2ccc(F)c(F)c2F)no1,-0.6,-0.3,-13.8

# Next part (six carried over from the part before).
SMILES,MT1-MMP act inh,MT1-MMP act inh RFP,Yeast UUG start
CCC1Nc2ncnc(N3CCc4ccccc4C3)c2N(Cc2ccc(Br)cc2)C1=O (stereo not given),-2.8,-7.1,3.2
COc1ccc(C2(C)C(C#N)C(=O)NC(=O)C2C#N)cc1 (stereo not given),1.1,4.7,-22.2
N#Cc1cccc(C(=O)Nc2ccccc2C(=O)NC2CC2)c1,-0.3,-0.1,-15.5
C/C(=N\OCC(=O)OCC(=O)N(C)c1ccccc1)c1ccc2c(c1)OCO2,0.3,3.3,-1.4
COc1ccc(C(=O)NCC(c2ccccc2)c2ccccc2)cc1S(=O)(=O)N1CCOCC1,-4.0,-6.1,-3.0
Cc1cc(NC(=O)CN(C)CC(=O)Nc2ccc(F)c(F)c2F)no1,-0.6,-0.3,-13.8
CC1(C(=O)NS(=O)(=O)c2ccccc2)CCN1C(=O)Cc1ccc(Cl)cc1Cl (stereo not given),-0.4,2.8,2.6
c1ccc(NN(Cc2ccncc2)c2ccccc2)cc1,-2.8,-3.3,-18.7
COc1ccc(COC(=O)C2CCN(C(=O)c3ccc(Cl)cc3)CC2)cc1F,-0.3,-1.5,13.6
Cn1nc(SCc2ccccc2)c(=O)[nH]c1=O,-0.5,1.5,-13.4
Cc1ccc(C(=O)NCc2cccc(C(F)(F)F)c2)cc1S(=O)(=O)N1CCCCC1,-8.0,-21.5,-3.4
CN(CC(=O)Nc1cccc(F)c1)C(=O)c1ccc(N2C(=O)c3ccccc3C2=O)cc1,-0.2,-1.7,-7.5
C[C@H](CO)N1C[C@H](C)[C@@H](CN(C)S(=O)(=O)c2cccs2)OCc2cnnn2CCCC1=O,2.7,7.3,-8.9&-14.9
COc1ccccc1C(C)Nc1ccc(S(=O)(=O)N2CCN(C)CC2)cc1[N+](=O)[O-] (stereo not given),0.0,-3.4,10.5
Cc1ccccc1Nc1nc(N)nc(COC(=O)c2ccc([N+](=O)[O-])o2)n1,-2.3,-2.3,-3.1
COc1ccccc1C(=O)NCCC(=O)NCc1ccncc1,-1.3,0.4,-4.0
Cc1nn(C2CCS(=O)(=O)C2)c(C)c1CN(C)C(=O)c1ccc(Cl)cc1 (stereo not given),0.9,-4.2,-8.4
COc1ccc(CNC(=O)CCc2ccc(S(=O)(=O)N3CCCCCC3)cc2)cc1,-3.7,-11.3,-13.4
CC(C)[C@@H](C(=O)N[C@@H](CCc1ccc(O)cc1)C(=O)O)N(C)C(=O)[C@H](CO)NC(=O)[C@@H](O)[C@H](N)CCCCCCCCl,0.4,3.5,21.1
O=C1NC(=S)NC1=Cc1ccc(O)cc1,0.3,3.9,-19.9
CCOC(=O)C1=C(COC(=O)CNS(=O)(=O)c2c(F)cc(F)cc2Br)NC(=O)NC1C (stereo not given),1.9,3.0,-20.7
CCCN(CCC)CCNC(=O)Cn1cc2c(n1)-c1c(oc(C(=O)N3CCCC3)c1C)CC2,8.1,2.5,10.1
CC(=O)c1ccc(N2CCN(CC(=O)NC(=O)NCc3ccccc3)CC2)cc1,0.3,-1.6,-5.8
O=C(CC[C@H]1O[C@@H](n2ccc(=O)[nH]c2=O)[C@H](O)[C@@H]1O)NCC(c1ccccc1)c1ccccc1,-29.0,-53.8,-11.7
COc1ccc(NS(=O)(=O)c2cccc(C(=O)NCc3ccccc3CN3CCCC3)c2)cc1,1.9,1.3,-3.7
Oc1cc(CNC2CCCCC2)c(O)cc1CNC1CCCCC1,-0.1,7.1,-9.0
O=C(Nc1cccc2c1CCCC2)c1cc(C2CCCCN2C(=O)OCCF)on1 (stereo not given),0.3,-5.4,-3.8
C[C@H](CO)N1C[C@H](C)[C@H](CN(C)S(=O)(=O)c2cccs2)Oc2ncc(-c3cc4ccccc4o3)cc2C1=O,-5.8,-4.4,-9.9&5.9
CC(C)C[C@@H](CO)NS(=O)(=O)c1c(F)cccc1F,4.1,4.9,-8.6
COc1ccc(C2/C=C\CC(NC(=O)OCC3c4ccccc4-c4ccccc43)CC(=O)N2Cc2ccccc2F)cc1 (stereo not given),-1.8,1.1,-9.0
Cc1ccc(OC2CCN(C(=O)[C@H]3O[C@@H](n4ccc(=O)[nH]c4=O)[C@H](O)[C@@H]3O)CC2)cc1,2.7,2.7,7.7
Cc1cccc(O)c1C,1.6,4.1,-20.9
COC(=O)C1CCN(S(=O)(=O)c2ccc(Br)s2)CC1,-1.7,1.9,-14.7
COCc1ccc(C(=O)N2CCN(CC(=O)N3CCCC3)CC2)cc1,-1.5,4.1,-12.2
O=C(Nc1ccc(F)cc1)Nc1ccc(S(=O)(=O)N2CCCC2)cc1,9.0,-1.8,-0.7
COc1ccc(C(C)(O)c2nc(-c3ccc4c(c3)OCO4)cs2)cc1 (stereo not given),2.0,-4.5,-4.3

# Part of the list above, with bars between the fields.
SMILES | MT1-MMP act inh | MT1-MMP act inh RFP | Yeast UUG start
O=C(Nc1cccc2c1CCCC2)c1cc(C2CCCCN2C(=O)OCCF)on1 (stereo not given) | 0.3 | -5.4 | -3.8
C[C@H](CO)N1C[C@H](C)[C@H](CN(C)S(=O)(=O)c2cccs2)Oc2ncc(-c3cc4ccccc4o3)cc2C1=O | -5.8 | -4.4 | -9.9&5.9
CC(C)C[C@@H](CO)NS(=O)(=O)c1c(F)cccc1F | 4.1 | 4.9 | -8.6
COc1ccc(C2/C=C\CC(NC(=O)OCC3c4ccccc4-c4ccccc43)CC(=O)N2Cc2ccccc2F)cc1 (stereo not given) | -1.8 | 1.1 | -9.0
Cc1ccc(OC2CCN(C(=O)[C@H]3O[C@@H](n4ccc(=O)[nH]c4=O)[C@H](O)[C@@H]3O)CC2)cc1 | 2.7 | 2.7 | 7.7
Cc1cccc(O)c1C | 1.6 | 4.1 | -20.9

# Continued:
SMILES,MT1-MMP act inh,MT1-MMP act inh RFP,Yeast UUG start
Cc1cccc(N2CC(C(=O)OCC(=O)c3c(N)n(CC(C)C)c(=O)n(C)c3=O)CC2=O)c1C (stereo not given),5.0,-3.9,-9.3
Cn1c(=O)c2c(nc(OC3CCCC3)n2C)n(C)c1=O,2.9,1.4,-8.7
CCOC1=C2[C@@H](CN(S(=O)(=O)c3ccc(C)cc3)[C@H]2c2ccccc2)[C@H]2C(=O)N(c3ccccc3)C(=O)[C@H]2C1,0.5,-1.6,-17.8
O=C(CSc1nnc(-c2c[nH]c3ccccc23)n1C1CC1)NC1CCS(=O)(=O)C1 (stereo not given),-1.6,5.1,8.9
CCN(C(=O)COC(=O)/C=C/c1ccc(Cl)c(Cl)c1)c1c(N)n(Cc2ccccc2)c(=O)[nH]c1=O,1.9,-6.3,-12.3
COc1ccc(NC(=O)CCOc2ccc(C)cc2)cc1S(=O)(=O)N1CCCCC1,9.2,-9.3,9.2
COc1ccccc1N1CCN(C(=O)c2ccc(-c3nc4ccccc4s3)o2)CC1,-0.8,0.5,-11.9
O=C(CCc1ccccc1Cl)N1CCN(S(=O)(=O)c2ccccc2)CC1,-6.9,7.1,2.4
CCCNC(=O)C1(C)CCN(C(=O)c2cc(F)ccc2C)C1 (stereo not given),5.0,5.3,-16.7
C=CCN1[C@H](COCc2ccccc2)C=CS1(=O)=O,4.5,6.9,2.1
CNc1snc(C)c1C(=O)OCC(=O)N(C)c1ccccc1,0.6,-7.7,-15.8
COc1ccc(NC(=O)[C@@H]2CCCN2C(=O)c2cccs2)cc1S(=O)(=O)N1CCCCC1,-2.0,2.9,-10.5
CC1CCCCC1NC(=O)COC(=O)c1cccn1C (stereo not given),-3.3,-1.1,-18.1
CC(C)c1ccccc1NC(=O)Nc1nnc([C@H]2C[C@H](O)[C@@H](CO)O2)s1,-1.5,-0.9,-6.3
C[C@@H]1Cn2cnc(C(=O)N[C@@H](C)C(=O)OC(C)(C)C)c2C(=O)N1,1.7,5.3,0.6
CCOC(=O)C1(C)CCN1C(=O)c1cccs1 (stereo not given),1.5,2.9,-20.0
Cc1ccc(C(CC(=O)O)NC(=O)c2ccc(S(=O)(=O)N3CC(C)OC(C)C3)cc2)cc1 (stereo not given),-2.9,0.7,-1.6
Cc1ccc(S(=O)(=O)N2CCN(C(=O)c3cc(S(=O)(=O)N4CCOCC4)ccc3F)CC2)cc1,11.2,2.0,1.8
CC1CCN(C(=O)CN2C(=O)NC3(CCC(C)CC3)C2=O)CC1 (stereo not given),-4.5,-1.6,3.9
O=C(NCCCN1CCOCC1)c1ccccc1N1C(=O)[C@@H]2Cc3c([nH]c4ccccc34)C(c3ccccc3)N2C1=O (stereo not given in full),-0.2,-1.2,-13.1
COc1ccc(NC(=O)c2ccc3c(c2)S(=O)(=O)N=C2CCCCCN23)cc1S(N)(=O)=O,-1.2,0.0,-7.6
Cn1cc(-c2coc3c(C(=O)NCc4ccco4)cccc23)cn1,3.9,2.8,-12.1
Nc1ccc2c(c1)C(=O)c1cc([N+](=O)[O-])ccc1-2,-14.9,-1.1,-11.5
COc1cccc(C=NNC(=O)CCCC(=O)NN=Cc2cccc(OC)c2)c1,4.2,-0.5,-24.2
O=C(NCc1cccc(Cl)c1)c1ccc(-n2ccnc2)c2ccoc12,6.3,-2.5,125.6*
C(=NOCCc1ccccc1)c1ccccn1,0.6,2.7,-9.3
CCc1nc2ccc(C(=O)NCCC(C)C)cn2c1N(C)Cc1ccc(OC)cc1,1.1,0.9,-2.9
Cc1nc(N)[nH]c(=O)c1CCCNc1ccc(CCCCC2(CCl)OCCO2)cc1,0.0,-14.0,19.6
O=C1CCc2ccccc2O1,3.5,3.4,-13.7
CCN1C(=N)N(c2ccccc2)C(=O)C(CC)(CC)C1=O,5.1,2.5,-4.0
COC(=O)c1ccc(N2CCOCC2)c(NC(=O)c2cc3ccccc3o2)c1,-4.9,7.6,-27.8
O=C(NCCc1ccccc1)c1ccc(-c2cccnc2)c2ccoc12,-2.2,-0.9,-9.0
COc1cc(OC)cc(C(=O)N[C@H](C(=O)OCC(=O)N2CCN(S(=O)(=O)c3ccc(C)cc3)CC2)C(C)C)c1,-2.4,0.7,-2.2
CN(CC(=O)Nc1ccccc1Br)C(=O)CN1CCN(c2ccccc2Cl)CC1,4.5,1.2,-16.2
O=C(Nc1cccc2ccccc12)c1[nH]c(-c2ccccc2)c2c1C(=O)N(C1CC1)C2=O,-0.1,-7.0,-10.7
Cc1nc(C)c(C(=O)OCC(=O)Nc2ccccc2)s1,-2.3,-0.4,-11.4
O=C(Nc1cc(C(F)(F)F)ccc1N1CCCC1)C1CC(=O)N(Cc2ccccc2)C1 (stereo not given),-2.2,0.5,-20.0
OC[C@H]1O[C@@H](Oc2ccc3cc(Br)ccc3c2)[C@H](O)[C@@H](O)[C@H]1O,3.4,3.5,-15.3
O=C(c1cccc(S(=O)(=O)Nc2ccc(F)cc2)c1)N1CCC1,-0.3,2.8,-15.5
COc1ccccc1C(=O)NCCC(=O)N1CCN(C(=O)c2ccco2)CC1,-1.5,3.3,-4.6
O=C(COc1ccc(Br)cc1CO)Nc1ccc(S(=O)(=O)N2CCCCC2)cc1,2.1,-9.3,2.7
CCOc1ccc(CCNC(=O)c2cccc(-n3cnnn3)c2)cc1OCC,9.4,-2.5,12.2
N#Cc1cccnc1N1CCN(C(=O)c2cccc3c2C(=O)c2ccc(-c4ccc(Cl)c(C(F)(F)F)c4)cc2S3(=O)=O)CC1,8.6,0.0,-8.7
COC(=O)c1ccc(-n2c(C)cc(C(=O)COC(=O)C3=COCCO3)c2C)cc1,5.7,1.5,-12.0
CCc1cccc(C)c1NC(=O)c1cc(=O)[nH]c2ccc(S(=O)(=O)N3CCOCC3)cc12,1.0,3.3,-9.2
O=C(c1ccccc1)N(C(=O)c1ccccc1)N1CCCC1,0.7,-0.3,-2.2
